Source: PubChem
RGS8-Gao – RGS8-Galphao binding modulators, primary screen, biochemical, multiplexed bead flow cytometry. actives 0.34% (n = 220,000). response (percent of control binding), % at 10 µM. actives lie on both sides; in the data active means response below about 60% or above about 140%; inactive means in between;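 further: Galphao activated as the GDP aluminium fluoride complex binding bead-coupled RGS8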
Target sequence (P09471 whole entry, looked up): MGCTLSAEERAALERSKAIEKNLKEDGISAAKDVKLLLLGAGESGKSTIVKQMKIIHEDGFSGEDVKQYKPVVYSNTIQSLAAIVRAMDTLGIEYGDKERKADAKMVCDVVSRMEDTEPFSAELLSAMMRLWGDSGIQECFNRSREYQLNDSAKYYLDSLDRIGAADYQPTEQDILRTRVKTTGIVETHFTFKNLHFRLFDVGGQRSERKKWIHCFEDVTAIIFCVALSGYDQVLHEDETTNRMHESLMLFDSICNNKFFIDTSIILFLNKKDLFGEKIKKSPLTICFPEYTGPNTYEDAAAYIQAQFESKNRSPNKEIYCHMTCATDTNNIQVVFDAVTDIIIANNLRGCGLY
Pf gamet viab – late stage P. falciparum gametocyte viability inhibitors, primary screen, ATP luminescence, HTS; actives 0.065% (n = 150,000); inhibition, % at 10.9 µM; P. falciparum stage V gametocytes, 24 h;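 active means inhibition above the mean plus 3 SD of compounds within the control limits, set per campaign, cut at about 38% in these data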;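 further: 0% = DMSO wells and 100% = medium only without gametocytes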
ABCG2 block – ABCG2 efflux pump inhibitors, primary screen, multiplex with ABCB1, IgMXP3 cells, flow cytometry; AID 1325, 2008; inhibition, % at 6.6 µM; actives 0.1% (n = 190,000); Broad substrate specificity ATP-binding cassette transporter ABCG2 (Homo sapiens), Q9UNQ0; JC-1 efflux;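 active means inhibition above 80%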;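 further: 0% = DMSO and 100% = nicardipine control wells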
Target sequence (Q9UNQ0 whole entry, looked up): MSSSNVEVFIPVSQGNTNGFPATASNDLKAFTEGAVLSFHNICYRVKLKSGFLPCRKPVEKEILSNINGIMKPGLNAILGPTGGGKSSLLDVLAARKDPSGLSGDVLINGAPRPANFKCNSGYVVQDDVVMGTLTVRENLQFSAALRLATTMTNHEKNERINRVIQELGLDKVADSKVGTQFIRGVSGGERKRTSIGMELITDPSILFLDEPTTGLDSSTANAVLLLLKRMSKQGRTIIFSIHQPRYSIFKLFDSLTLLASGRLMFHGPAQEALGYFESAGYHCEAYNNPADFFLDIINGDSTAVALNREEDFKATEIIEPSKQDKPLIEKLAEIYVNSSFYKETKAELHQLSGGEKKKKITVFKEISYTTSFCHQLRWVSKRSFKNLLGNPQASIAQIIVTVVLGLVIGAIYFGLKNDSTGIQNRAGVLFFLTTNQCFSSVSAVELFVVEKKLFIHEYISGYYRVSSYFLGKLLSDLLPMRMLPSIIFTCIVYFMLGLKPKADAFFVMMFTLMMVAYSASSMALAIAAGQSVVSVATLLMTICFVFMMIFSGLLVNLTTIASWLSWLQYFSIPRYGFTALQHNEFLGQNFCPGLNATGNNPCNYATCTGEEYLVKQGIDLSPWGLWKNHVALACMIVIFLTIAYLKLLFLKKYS
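Measure – % inhibition of efflux relative to nicardipine and DMSO · Test system – ABCG2 IgMXP3 and barcoded ABCB1 CCRF-Adr cell mix · Control set – nicardipine as high control, DMSO as low control · Compound – one concentration, 6.6 µM final · Signal – flow cytometry of retained JC-1 fluorescence · Timing – 10 min exposure at 25 °C with rotation, no wash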
RGS7-Gao reg – RGS7-Galphao binding modulators, primary screen, biochemical, multiplexed bead flow cytometry | Guanine nucleotide-binding protein G(o) subunit alpha (Homo sapiens), P09471 | actives lie on both sides | binding response (% of control), % at 10 µM | actives 0.35% (n = 220,000) | AID 1439, 2008; in the data active means binding response below about 49% or above about 150%; inconclusive means no clear call, values can overlap the other calls; inactive means in between;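 further: fluorescent Galphao held in activated GDP-AlF4 state binding bead-coupled RGS7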
Avidin fluor – green autofluorescence of compounds with avidin beads – biophysical, 488/530 nm, flow cytometry, artefact control, profiling panel | compound fluorescence 488/530 nm; hits give high values | fluorescence (KMESF) at 10 µM | actives 0.38% (n = 220,000); in the data active means fluorescence above about 47; further: inactives centre near 10
GSH fluor – compound fluorescence on glutathione beads, profiling panel, artefact control, biophysical, 488/530 nm, flow cytometry; GSH beads flow cytometry, compound fluorescence 488/530 nm; hits give high values; actives 0.25% (n = 190,000); fluorescence (KMESF) at 10 µM; in the data active means fluorescence above about 89;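 further: glutathione beads carrying GST-tagged Bcl family fusion proteins plus one bare bead set; values are compound well signal with DMSO vehicle wells as background; inactives centre near 16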
ABCB1 block – ABCB1 efflux pump inhibitors, primary screen, cell-based, multiplex, flow cytometry, ABCG2 counter-screen. ATP-dependent translocase ABCB1 (Homo sapiens), P08183. CCRF-Adr cells, JC-1 efflux. inhibition, % at 6.6 µM. actives 0.067% (n = 190,000). AID 1326, 2008; in the data active means inhibition above about 40%;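 further: 0% = vehicle and 100% = reference inhibitor; higher value means more JC-1 retained so stronger ABCB1 efflux block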
RGS4-Gao reg – modulators of RGS4 binding to Galphao, primary screen, biochemical, multiplexed bead flow cytometry; actives 0.33% (n = 220,000); actives lie on both sides; binding response (% of control), % at 10 µM; Guanine nucleotide-binding protein G(o) subunit alpha (Homo sapiens), P09471; in the data active means binding response below about 49% or above about 150%; inactive means in between;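 further: fluorescent Galphao activated with aluminum fluoride binding bead-coupled RGS4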
* = called active by the depositor; ? = inconclusive; / = no result given.

Start of the listing, in advance (5 entries):
SMILES	RGS8-Gao	Pf gamet viab	ABCG2 block	RGS7-Gao reg	Avidin fluor	GSH fluor	ABCB1 block	RGS4-Gao reg
COc1ccc2c(c1)c1nc3ccccc3nc1n2Cc1ccc(OC(C)C)c(OC)c1	102	-10	17	101	13	18	6.1	101
COc1ccc(-c2nnc(-c3ccc(N)cc3)o2)cc1	100	22	9	96	9	53	-0.1	96
O=C(Nc1ccccn1)c1cc(-c2cccnc2)nc2ccc(Br)cc12	100	-1	9	100	15	10	3.7	99
Cc1ccc(C(=O)COC(=O)c2ccc3c(c2)C(=O)N(c2cccc4ncccc24)C3=O)cc1C	99	10	0	101	10	19	0.1	95
CCOC(=O)CN1C(=O)SC(Nc2ccc(C)cc2)C1=O (stereo not given)	99	6	0	96	12	20	-0.1	103

This part in full, previewed entries included:
SMILES	RGS8-Gao	Pf gamet viab	ABCG2 block	RGS7-Gao reg	Avidin fluor	GSH fluor	ABCB1 block	RGS4-Gao reg
COc1ccc2c(c1)c1nc3ccccc3nc1n2Cc1ccc(OC(C)C)c(OC)c1	102	-10	17	101	13	18	6.1	101
COc1ccc(-c2nnc(-c3ccc(N)cc3)o2)cc1	100	22	9	96	9	53	-0.1	96
O=C(Nc1ccccn1)c1cc(-c2cccnc2)nc2ccc(Br)cc12	100	-1	9	100	15	10	3.7	99
Cc1ccc(C(=O)COC(=O)c2ccc3c(c2)C(=O)N(c2cccc4ncccc24)C3=O)cc1C	99	10	0	101	10	19	0.1	95
CCOC(=O)CN1C(=O)SC(Nc2ccc(C)cc2)C1=O (stereo not given)	99	6	0	96	12	20	-0.1	103
CCCCC(=O)Nc1ccc2c3c(cccc13)CC2	86	-12	11	100	2	26	-0.8	98
Cc1ccc(S(=O)(=O)N(CC(=O)Nc2ccccc2C(=O)O)c2ccc(Cl)cc2)cc1	102	-13	-6	105	9	12	-0.9	99
Cc1ccccc1OCc1nc(-c2ccc(NC(=O)c3ccc4c(c3)OCO4)cc2)no1	105	-6	0	97	7	46	-0.1	100
CCC(C)(C)n1nnnc1C(c1cccs1)N1CCc2ccccc21 (stereo not given)	98	17	1	93	6	64	0.6	95
C=CCNC(=O)Nc1ccc2nc(C)sc2c1	98	4	5	99	6	16	-0.4	97
O=C(N/N=C/c1nn(-c2ccccc2)cc1-c1ccc(Cl)cc1)c1ccncc1	101	/	8	95	5	8	1.6	99
CC1(C)COC(c2cccc(C3=NC(C)(C)CO3)n2)=N1	99	/	-1	98	2	6	-0.1	96

Retrieved by structure from above:
SMILES	RGS8-Gao	Pf gamet viab	ABCG2 block	RGS7-Gao reg	Avidin fluor	GSH fluor	ABCB1 block	RGS4-Gao reg
Cc1ccc(C(=O)COC(=O)c2ccc3c(c2)C(=O)N(c2cccc4ncccc24)C3=O)cc1C	99	10	0	101	10	19	0.1	95
O=C(N/N=C/c1nn(-c2ccccc2)cc1-c1ccc(Cl)cc1)c1ccncc1	101	/	8	95	5	8	1.6	99
CC1(C)COC(c2cccc(C3=NC(C)(C)CO3)n2)=N1	99	/	-1	98	2	6	-0.1	96
CCC(C)(C)n1nnnc1C(c1cccs1)N1CCc2ccccc21 (stereo not given)	98	17	1	93	6	64	0.6	95

The listing picks up, starting two compounds before the break.
SMILES	RGS8-Gao	Pf gamet viab	ABCG2 block	RGS7-Gao reg	Avidin fluor	GSH fluor	ABCB1 block	RGS4-Gao reg
O=C(N/N=C/c1nn(-c2ccccc2)cc1-c1ccc(Cl)cc1)c1ccncc1	101	/	8	95	5	8	1.6	99
CC1(C)COC(c2cccc(C3=NC(C)(C)CO3)n2)=N1	99	/	-1	98	2	6	-0.1	96
CCOC(=O)C1=C(C)NC2=C(C(=O)CC(c3ccc(OC)c(OC)c3)C2)C1c1ccc(C)o1 (stereo not given)	102	/	-3	95	17	20	-2.8	97
COc1cc(NC2c3ncccc3C(=O)N2Cc2ccco2)cc(OC)c1 (stereo not given)	96	14	10	97	20	11	0.9	95
COc1ccc(N/N=C(/C(N)=O)C2=NC(C)(C)Cc3ccccc32)cc1	100	-6	22	97	2	6	2.0	100
CCc1ccc(C2C(C(=O)O)c3ccccc3C(=O)N2C)cc1 (stereo not given)	102	/	1	103	4	28	0.1	102
CCOCc1[nH]c(=S)[nH]c(=O)c1Cc1ccc(OCC)cc1	98	-14	1	100	20	11	0.1	104
CCN(CC)C(=O)C1=C(C)Nc2nnnn2C1c1cccnc1 (stereo not given)	91	-6	14	97	5	14	2.2	92
COc1ccc(/C=N/NC(=O)CN2CCSCC2)cc1C	103	/	6	103	13	9	0.1	104
CCCC(=O)Nc1ccc(-c2nc3cc(C)c(C)cc3o2)cc1	105	/	-1	100	5	19	-0.3	104
Cc1nn(-c2ccccc2)c2[nH]c(=O)c(CNCc3ccc4c(c3)OCO4)cc12	102	-1	7	100	2	23	2.3	98
Fc1ccc(CNCc2cccc(Br)c2)cc1	103	13	0	103	2	8	-0.5	104
Cn1c(NCc2ccco2)nc2c1c(=O)n(Cc1ccc(Cl)cc1Cl)c(=O)n2C	96	/	28	91	7	14	0.4	94
CCOC(=O)N/N=C/c1c(C)c(C(=O)c2ccc(F)cc2)n2ccccc12	100	/	1	96	10	11	0.2	98
COc1ccc(S(=O)(=O)N2CCCN(CCC(=O)Nc3cccc(C(F)(F)F)c3)CC2)cc1	104	-9	1	98	15	17	0.5	101
COC(=O)c1ccc2[nH]c(C)c(CN3CCCC3)c(=O)c2c1	102	3	2	101	30	23	-0.1	103
Cc1ccc(C(=O)Nc2c(C(=O)NCc3ccco3)cnn2-c2ccccc2)cc1	100	/	0	99	10	9	0.2	101
CCCN1C(=O)c2ccc(C(=O)NC3CCCCC3)cc2C1=O	105	/	6	106	9	7	0.2	107
COc1ccc(-c2nnc(S/C(=C/c3ccc(Cl)cc3)C(=O)O)o2)cc1	101	9	1	99	20	13	0.2	98
Cc1c(C=O)c2ccccn2c1C(=O)c1cccc([N+](=O)[O-])c1	90	/	33	105	7	15	-1.3	77
Cc1cc2c(C)nc(N/N=C/c3ccccc3)nc2o1	103	8	3	102	2	6	0.3	100
CCOC(=O)Nc1cccc(NC(=O)c2cc(OC)cc(OC)c2)c1	99	/	2	99	27	12	0.2	100
CCOc1ccc(NC(=O)C2(c3ccc(OC)c(OC)c3)CCCC2)cc1	101	/	3	101	13	22	0.9	98
CC(C)Nc1nc(N(c2ccccc2)c2ccccc2)nc(-n2ccnc2)n1	98	2	1	100	7	19	0.3	99
CCn1c(COc2ccc(Cl)cc2)nnc1SCC(=O)Nc1ccc2c(c1)OCCO2	95	/	30	99	9	32	2.0	101
CN1CCN(c2ccccc2NC(=O)c2cccc([N+](=O)[O-])c2)CC1	100	-40	35	98	10	9	3.9	95
CN1CCNC(=O)C1CC(=O)NCCC1=CCCCC1 (stereo not given)	96	-32	1	97	3	10	0.3	96
Cn1c(=O)n(Cc2ccc(F)cc2)c(=O)c2c1nc1n2CCN1Cc1ccco1	101	15	16	101	9	17	1.2	102
O=C1OC(c2ccc(F)cc2)=N/C1=C\c1ccc(Br)o1	101	2	0	99	21	12	-0.7	99
CCOc1ccc(-n2c(SCC(=O)N3CCc4ccccc43)nnc2-c2c[nH]c3ccccc23)cc1	99	/	1	99	6	15	0.2	93
O=C(N/N=C/c1ccncc1)c1ccc(NS(=O)(=O)c2cccs2)cc1	101	/	0	99	9	12	-0.1	102
C=CCOc1ccc(/C=N/NC(=O)CN2CCOCC2)cc1OCC	100	-34	1	98	9	21	0.2	91
Cc1cc(C)nc(SCc2nc(N)nc(-c3ccccc3O)n2)n1	105	2	1	102	0	34	-1.3	98
CCOC(=O)C(NC(=O)c1cccc(Cl)c1)(Nc1sc2c(c1C(N)=O)CCC2)C(F)(F)F (stereo not given)	100	-9	18	100	13	16	0.9	99
Cc1ccc2cc(/C=N/Nc3nc4ccccc4[nH]3)c(Cl)nc2c1	101	9	-3	93	7	9	-0.8	95
CC(C)CCn1nnnc1CN1CCN(c2ccccc2)CC1	100	11	0	?	7	10	0.0	97
COc1ccc(/C=C/C(=O)NC(=S)N2CCSCC2)cc1	102	0	-1	103	12	13	-0.8	103
COc1ccc(OC)c2sc(NC(=O)c3ccc(Cl)s3)nc12	103	/	-4	100	8	17	-2.7	104
COc1ccc(CN2C(=O)c3cccnc3C2Nc2cc(Cl)ccc2OC)cc1 (stereo not given)	104	/	8	103	10	8	2.1	98
CCOC(=O)C(NC(=O)c1ccc(F)cc1)(Nc1sc2c(c1C(N)=O)CCC2)C(F)(F)F (stereo not given)	113	19	7	108	15	4	3.5	105
COc1ccccc1NC(C)C(=O)Nc1ccc(C(C)=O)cc1 (stereo not given)	99	-30	11	95	1	6	0.5	98
CCOCc1[nH]c(=S)[nH]c(=O)c1Cc1ccc(OCC(C)C)cc1	97	13	2	102	21	11	0.7	99
COc1ccc(-c2cnnc(N/N=C/c3ccc(-c4ccc([N+](=O)[O-])cc4)o3)n2)cc1	100	-7	0	95	20	6	-0.5	94
O=C(Cn1c2ccccc2c(=O)c2ccccc21)N/N=C/c1ccc(N2CCCC2)c([N+](=O)[O-])c1	98	-13	-1	90	12	9	0.1	91
Cc1ccc(CNC(=O)C2COc3ccccc3O2)cc1 (stereo not given)	97	31	2	100	10	17	0.3	101
CC1CN(c2nc3c(c(=O)n(Cc4ccc(Cl)c(Cl)c4)c(=O)n3C)n2C)CC(C)O1 (stereo not given)	100	/	4	98	15	15	1.4	100
CCOc1cccc2sc(NC(=O)c3ccc(Br)s3)nc12	92	/	0	99	3	24	-0.8	86
CCc1cccc2c(C(=O)COC(=O)C3=NNC(=O)CC3)c[nH]c12	100	10	8	?	11	10	1.0	101
COc1cc(C)c(Cl)c(C)c1S(=O)(=O)NCc1ccc2c(c1)OCO2	100	13	3	103	16	12	0.5	100
Cc1nn(-c2ccccc2Cl)c2sc(C(=O)Nc3nnc(C4CC4)s3)cc12	103	-1	3	101	4	8	0.3	101
CC(=O)N1CCN(c2nc(C)nc3sc4c(c23)CCC(C)C4)CC1 (stereo not given)	100	/	25	103	13	34	1.0	100
CCCc1nc(NCc2ccncc2)c2nnn(Cc3ccccc3F)c2n1	103	-4	5	100	21	11	2.7	104
O=C(CCc1ccc(CCC(=O)c2cccs2)s1)c1cccs1	99	/	3	99	4	24	0.3	97
CCN(CC)C(=O)c1cnn(-c2ccccc2)c1NC(=O)c1ccco1	103	17	0	104	4	16	0.7	102

These rows are one share of the data, so the mix of outcomes need not match the whole.
